# Screening data from PubChem.
# HPGD inh: blocks human HPGD enzyme activity. 4.3% of 150,000 active. Potency, µM, inactives show top-dose activity change, negative = inhibition, actives largely listed as inhibitors. AID 894. purified HPGD, NADH fluorescence kinetic, PGE2 substrate; active = well fitted inhibition curve with a large enough effect (not every such curve was filed as active); inconclusive = small, poorly fitted or top-dose-only effect, or another doubt; inactive = no such curve, though single readings can be large or run the other way;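 note: top concentration of the series not given in the record; plate controls included wells without enzyme; inactives centre near -10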
# Target sequence (P15428 whole entry, looked up): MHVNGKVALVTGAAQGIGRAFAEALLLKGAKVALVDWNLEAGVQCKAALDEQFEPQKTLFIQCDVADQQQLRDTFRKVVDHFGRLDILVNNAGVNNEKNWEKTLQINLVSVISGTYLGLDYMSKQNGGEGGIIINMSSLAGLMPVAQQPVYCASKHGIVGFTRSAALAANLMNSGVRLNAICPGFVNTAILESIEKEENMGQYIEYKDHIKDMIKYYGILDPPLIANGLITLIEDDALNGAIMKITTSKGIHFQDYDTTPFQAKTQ
#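 NADH formation kinetics: reaction with 30 uM PGE2 and 1 mM NAD+ (final), 20 nM enzyme, Tris-HCl pH 8 with Tween 20, after 15 min compound preincubation at room temperature. Fluorescence change, last versus first of five reads.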
# The depositor's hits bear a star; ? = inconclusive; & = joins results of further samples. % is set by controls: 0 for no effect and ±100 for the full control effect; potency is the fitted concentration of half-maximal effect. Some of the compounds tested. The share of hits here may be higher or lower than overall.
SMILES,HPGD inh
CCOc1ccccc1N=C1SC(CC(=O)Nc2ccc(OC)cc2OC)C(=O)N1CCC1=CCCCC1 (stereo not given),-16%
COc1ccc(C)cc1-n1nnnc1SCn1nnc2ccccc2c1=O,-15%
CCOC(=O)/C(N=Nc1cc(C(=O)O)cc(C(=O)O)c1)=C(\O)CCl,-13%
COc1ccc(Nc2nc(N3CCCCC3)nc3ccccc23)c(OC)c1,-26%
Cc1cc(C)nc(NS(=O)(=O)c2ccc(NC(=O)c3cccc(N4C(=O)CCC4=O)c3)cc2)n1,-1%
COc1ccc2cc(CN(CCc3ccccc3)Cc3nnnn3CC3CCCO3)c(=O)[nH]c2c1 (stereo not given),-17%
COc1ccc(NC(=O)OCCn2c([N+](=O)[O-])cnc2C)cc1,-16%
Cc1nc2c(C)cccc2cc1C(=O)N/N=C/c1cccc([N+](=O)[O-])c1,-8%
COc1cccc(CNC(=O)c2nnn(-c3ccc(OC(F)(F)F)cc3)c2N)c1,-3%
COC(=O)C(C(=O)NCC1CCCO1)C1CCCCCC1 (stereo not given),-4%
COc1cccc(-c2cnc(OC(C)(C)C)nc2OC(C)(C)C)c1,?
N/C(=N\OC(=O)N1CCOCC1)c1ccccc1,-7%
O=C(Cc1cn2ccsc2n1)OCc1nc2ccccc2s1,-22%
Cc1ccc2cc(CN(Cc3cccs3)C(=O)c3ccco3)c3nnnn3c2c1C,-11%
CCOC(=O)C1(C(=O)O)NC(=O)CC1c1ccccc1 (stereo not given),-8%
COc1ccccc1OCC(=O)NCCSCc1cccc(Cl)c1,-14%
N=c1c2c(-c3ccccc3)c(-c3ccccc3)oc2ncn1CCCN1CCOCC1,-19%
Cc1cc2nc3c(=O)[nH]c(=O)nc-3n(CC(O)C(O)C(O)COP(=O)(O)O)c2cc1C (stereo not given),-28%
COc1ccc(-c2nn(-c3ccccc3)cc2CNC(=O)c2cccc([N+](=O)[O-])c2)cc1,-12%
CC1CCCC(C)N1C(=O)CSCc1ccc(Cl)cc1 (stereo not given),-16%

# 7 of the compounds above, bar-delimited.
compound | HPGD inh
COc1cccc(-c2cnc(OC(C)(C)C)nc2OC(C)(C)C)c1 | ?
N/C(=N\OC(=O)N1CCOCC1)c1ccccc1 | -7%
O=C(Cc1cn2ccsc2n1)OCc1nc2ccccc2s1 | -22%
Cc1ccc2cc(CN(Cc3cccs3)C(=O)c3ccco3)c3nnnn3c2c1C | -11%
CCOC(=O)C1(C(=O)O)NC(=O)CC1c1ccccc1 (stereo not given) | -8%
COc1ccccc1OCC(=O)NCCSCc1cccc(Cl)c1 | -14%
N=c1c2c(-c3ccccc3)c(-c3ccccc3)oc2ncn1CCCN1CCOCC1 | -19%

# Following part:
SMILES,HPGD inh
CN(C)c1nc(-c2ccccc2)c2cnn(Cc3ccccc3)c2n1,?
COCCn1c(SCC(=O)N2CCCc3ccccc32)nc2c(c1=O)SC(C)C2 (stereo not given),-19%
C/C(=N/NC(=O)Cn1nc2ccccc2n1)c1ccc(F)cc1,-4%
COc1cccc(-c2nnc(SCC(=O)N3CC(C)CC(C)C3)o2)c1 (stereo not given),-12%
CCCOC(=O)c1c(N)sc2c1CCC2,-20%
Cc1cc(C(=O)OCC(=O)NC(C)(C)C)c2ccccc2n1,-15%
Cc1ccccc1-c1nnc(SCc2ccccc2F)o1,16µM*
Fc1ccc(C2=Nn3c(Cc4ccccc4F)nnc3SC2)cc1,-14%
COc1cc(Cl)ccc1NC(=O)COc1ccccc1C(=O)N1CCN(c2ccc(O)cc2)CC1,-10%
O=S(=O)(Cc1ccccc1)N1CCC(c2nc(-c3cccs3)no2)CC1,-9%
N#C/C(=N\Nc1ccc(S(=O)(=O)N2CCCCC2)cc1)C(N)=S,-28%
Cc1cc(=O)[nH]c(SCC(=O)Nc2cccc3ccccc23)c1C#N,?
CCOC(=O)c1ccc(N/C(=N\S(=O)(=O)c2ccc(F)cc2F)c2ccccc2)cc1,-3%
COC(=O)c1c(NC(NC(=O)C(C)(C)C)C(Cl)(Cl)Cl)sc2c1CCC2 (stereo not given),-10%
O=C(O)C1C2C=CC(C2)C1C(=O)NCCc1ccccc1 (stereo not given),-9%
CC1CCN(c2c([N+](=O)[O-])c(=O)oc3ccccc23)CC1,-26%
O=C(CSc1nnc(-c2cccs2)n1-c1cccc(Cl)c1)c1cccc2c1OCCO2,-23%
Cc1cccc(OCC(=O)NC(C)C(=O)N/N=C/c2c(OCc3ccccc3)ccc3ccccc23)c1 (stereo not given),?
Cc1c(=O)n(OCc2ccccc2)c2ccccc2[n+]1[O-],-12%
COc1ccc(-c2nnc(SCC(=O)Nc3ccc(Cl)cc3)n2C)cc1,-7%
CCCCc1c(C)c(C#N)c2[nH]c3ccccc3n2c1=O,?
Cc1ccc(NS(=O)(=O)c2ccccc2Cl)c2c1CC(C)(C)O2,0%
COC(=O)c1c(NC(=O)c2ccc(S(=O)(=O)N3CCOCC3)cc2)sc2c1CCN(C)C2,-13%
O=C(CC1SC(=Nc2ccccc2)N(Cc2ccccn2)C1=O)Nc1ccc(Br)cc1 (stereo not given),?
CCOc1ccc(CCNC(=O)COC(=O)c2ccco2)cc1OCC,-8%
CCOC(=O)C1=C(C)NC(=O)C(C#N)C1c1ccncc1 (stereo not given),-13%
O=C(c1cc2sccc2n1Cc1ccc(F)cc1)N1CCN(c2nc3ccccc3s2)CC1,-9%
COC(=O)c1ccccc1N1C(=O)C2C(C1=O)C1C=CC2C12CC2 (stereo not given),-7%
Cc1ccc(C(=O)N/C(=C/c2cccnc2)C(=O)O)cc1,-14%
CCn1c(C)cc(/C=C2\NC(=O)N(CC(=O)Nc3cccc(C)c3)C2=O)c1C,?
COCCNC(=O)Cn1nc(C(F)(F)F)c(Cl)c1C,-10%
CCCS(=O)(=O)N1CCCC(C(=O)NCc2ccc3c(c2)OCO3)C1 (stereo not given),4%
CCCCN(C)CCCNC(=O)C1CC(=O)N(Cc2ccc(OC)cc2)C1 (stereo not given),-9%
COC(=O)C(NC(C)=O)(Nc1ccccc1)C(=O)OC,-1%
COCCN(CCOC)C(=O)c1ccc(Cc2nc3ccccc3[nH]2)cc1,-12%
COCC(=O)Nc1nc2ccccc2s1,-3%
COC(=O)c1c(NC(=O)COC(=O)c2ccc(Cl)cc2[N+](=O)[O-])sc2c1CCCCC2,-13%
CCOP(=O)(OCC)C(C#N)=C1SCN(c2ccc(Cl)cc2)CS1,20µM*
Clc1ccc(-c2csc3ncnc(NCCN4CCOCC4)c23)cc1,0%
COc1ccccc1NC(=O)c1cc2ccc(O)cc2o/c1=N\O,-17%
COC(=O)c1ccccc1Oc1nc(Cl)cc(OC)n1,-6%
Cc1ccccc1S(=O)(=O)Cc1ccc(C(=O)NCCCOC(C)C)o1,1%
CCCCC(C=O)NC(=O)C(CC(C)C)NC(=O)OCc1ccccc1 (stereo not given),-7%
CC(=O)c1c(N2CCOCC2)nc(=S)n(-c2cc(C)ccc2C)c1C,-12%
C=CCN(CC=C)C(=O)Nc1cc(Cl)ccc1OC,-8%
CCO/C=C/C(O)(CNC(=O)c1ccc(C(C)(C)C)cc1)C(F)(F)F (stereo not given),25µM*
Cc1c(CCO)c(=O)n(-c2ccccc2)n1S(=O)(=O)c1ccc(Cl)cc1,-7%
CC(=O)Nc1ccc2nc(SCC(=O)Nc3ccc(N4CCOCC4)c(Cl)c3)sc2c1,-1%
COc1cccc(C2C3=C(Nc4[nH]n(-c5ccccc5)c(=O)c42)c2ccccc2C3=O)c1 (stereo not given),-15%
O=C(NC1CCCCC1)C(c1ccco1)N(Cc1cccnc1)C(=O)C1COc2ccccc2O1 (stereo not given),-8%

# Ordered by molar mass (low to high): some entries from above
SMILES,HPGD inh
C=CCN(CC=C)C(=O)Nc1cc(Cl)ccc1OC,-8%
O=C(NC1CCCCC1)C(c1ccco1)N(Cc1cccnc1)C(=O)C1COc2ccccc2O1 (stereo not given),-8%
CC(=O)Nc1ccc2nc(SCC(=O)Nc3ccc(N4CCOCC4)c(Cl)c3)sc2c1,-1%

# (cont.)
SMILES,HPGD inh
COc1cc2c(cc1NC(=O)COC(=O)Cn1cnc3ccccc31)oc1ccccc12,?
CCC(Sc1nc2ccccc2o1)C(=O)Nc1nnc(C)s1 (stereo not given),-1%
Cc1c(Cl)c(-c2n[nH]c(=S)n2CC(C)C)nn1C,-15%
CC(=O)c1ccc(NC(=O)CN2C(=O)/C(=C/C(C)=C/c3ccccc3)SC2=S)cc1,-16%
COC(=O)c1ccccc1NC(=O)C1CC(=O)N(C2CCCCC2)C1 (stereo not given),-27%
O=C1CC(c2ccncc2)c2cc3c(cc2N1)OCCO3 (stereo not given),-1%
Cc1ccccc1C(=O)Nc1cccc(C#N)c1,-29%
Clc1ccc(SCCOCCN2CCCCC2)cc1,-3%
Cc1cc(NC(=O)CN2CC(C)OC(C)C2)n(-c2nc3ccccc3s2)n1 (stereo not given),-16%
COc1cccc(-c2nc(Oc3cccc(C)c3C)c3ccccc3n2)c1O,-14%
O=C(CNC(=O)c1ccco1)Nc1ccc(S(=O)(=O)N2CCCC2)cc1,-9%
O=c1cc(-c2ccccc2)nc(N2CCN(Cc3ccc4c(c3)OCO4)CC2)[nH]1,-13%
CCCc1nc2c(c(=O)c3ccccc3n2C)c(=O)n1-c1ccc(F)cc1,-9%
Cc1ccccc1NC(=O)C1CCN(c2cnccn2)CC1,-20%
CSCCC(NC(=O)c1ccccc1Br)C(=O)Nc1ccc(C)cc1 (stereo not given),-7%
CCCn1c(-c2ccc(F)cc2)nc2c(NC3CCN(Cc4ccccc4)CC3)nc(C)nc21,?
O=C1C(=O)N(CCO)C(c2ccccc2)/C1=C(\O)c1ccccc1 (stereo not given),-8%
C=CCC(NCc1ccccc1)c1ccco1 (stereo not given),0%
CCCCC(CC)Cn1c(N)c(C#N)c2nc3ccccc3nc21 (stereo not given),?
Cn1c(NC(=O)c2ccc(Cl)s2)cc(=O)n(C)c1=O,-10%
CC1CCC/C(=C(\C#N)c2nc(-c3cc4ccccc4oc3=O)cs2)C1 (stereo not given),?
CCOC(=O)N1CCC(Nc2ncnc3c2cnn3-c2ccc(C)cc2C)CC1,-12%
CC(NC(=O)c1ccc(-c2cc(C(F)(F)F)ccc2Cl)o1)c1ccccc1 (stereo not given),-17%
Cn1cnc([N+](=O)[O-])c1Sc1ccccc1,16µM*
Cc1cccc(C(=O)NCCc2n[nH]c(=S)n2C)c1,-11%
CC(C)(C)c1c2c(c(C(C)(C)C)c3c1OCN(Cc1ccccc1)C3)OCN(Cc1ccccc1)C2,-8%
O=C(Nc1ccc(Cl)c(-c2nc3ccccc3[nH]2)c1)c1ccc2c(c1)OCO2,-31%
c1ccc2c(c1)ccc1nnc(SCc3ccc4c(c3)OCCO4)n12,-9%
CCC(=O)NC(c1cccc([N+](=O)[O-])c1)c1c(OC(C)=O)ccc2ccccc12 (stereo not given),-16%
Cc1nn(Cc2ccc(Cl)cc2)c(Cl)c1/C=N/NC(=O)c1cccnc1,-12%
O=C(Nc1ccc(NC(=O)c2cccs2)cc1)c1ccco1,-14%
CCOC(=O)CC1(CC(=O)OCC)NC(=O)c2c(C)sc(C(=O)OCC)c2N1,?
Cc1cc(C)cc(-n2cc[nH]c2=S)c1,?
Cc1nn(-c2ccccc2)c(C)c1/C=N/N1CCN(c2ccccc2)CC1,-5%
Nc1nc2c(ncn2[C@H]2CC[C@@H](CO)O2)c(=O)n1C(=O)c1ccccc1,-7%
N#C/C(=C\c1ccc(F)cc1)c1nc(-c2ccco2)cs1,-2%
Cn1nc(-c2ccc(OCC(N)=O)cc2)c2ccccc2c1=O,-21%
Cc1c(-c2ccccc2)sc(N)c1C(=O)N1CCOCC1,8.9µM*
COC(=O)CN(n1cnnc1)S(=O)(=O)c1ccccc1,-10%
CCOC(=O)N1CCN(C(=S)NC(=O)c2ccnn2C)CC1,-26%

# Arranged by the number under HPGD inh (largest number first): some entries from above.
SMILES,HPGD inh
N#C/C(=C\c1ccc(F)cc1)c1nc(-c2ccco2)cs1,-2%
O=C(Nc1ccc(NC(=O)c2cccs2)cc1)c1ccco1,-14%
Cn1nc(-c2ccc(OCC(N)=O)cc2)c2ccccc2c1=O,-21%

# Next section
SMILES,HPGD inh
COc1ccc(C(=O)/C=C/N(C)C)cc1,25µM*
O=C(CCSc1nnc(-c2ccncc2)o1)Nc1ccccc1,-15%
COc1cc(C(c2sc3nc(C)nn3c2O)N2CCc3ccccc3C2)cc(OC)c1OC (stereo not given),-11%
O=C(c1c(F)c(F)c(F)c(F)c1F)N(Cc1ccccc1)Cc1ccccc1,-17%
CC1(C)OC(c2ccccc2)=C/C(=C/C=Nc2ccccc2)O1,-13%
Cc1ccc(S(=O)(=O)c2c(C)nn(C(C)(C)C)c2OC(=O)c2ccco2)cc1,-20%
Cc1ccc2nc(SCC(=O)N3CCOCC3)[nH]c2c1,-3%
O=C(NCO)c1cccnc1,-9%
COCCNC(=O)c1cccc(Nc2nc(-c3ccccc3)c3cc(Cl)ccc3n2)c1,28µM*
CCN(CC)S(=O)(=O)c1ccc(N/N=C(\C)c2ccc3c(c2)OCO3)c([N+](=O)[O-])c1,-21%
CN(CC(=O)NCc1ccncc1)S(=O)(=O)c1ccccc1,-2%
Fc1c(F)c(C(F)(F)F)c(F)c(F)c1N/N=C\c1cccs1,-25%
COc1ccccc1N1CC(C(=O)Nc2nnc(SCc3ccccn3)s2)CC1=O (stereo not given),-26%
NC(=O)C1CCN(C2=C(Cl)C(=O)c3ccccc3C2=O)CC1,14µM*
COc1ccc(-c2cc(=O)oc3cc(OC(=O)C4CCCCC4)ccc23)cc1,?
COc1ccc(-c2nsc(SCC(=O)Nc3cc(C)on3)n2)cc1,25µM*
COc1ccc2ccccc2c1CN1CCCC(CO)C1 (stereo not given),-5%
C[C@H](CO)NC(=O)[C@H](C)[C@@H]1C[C@@]1(C)[C@@H](NC(=O)OCc1ccccc1)c1ccccc1,-20%&-8%
CCc1cc(/C(Cc2cscn2)=N\O)c(O)cc1O,-8%
